# Vif A3G – inhibitors of Vif binding to APOBEC3G peptide, primary screen, biochemical, TR-FRET, GST-Vif 1-94, biotin-A3G peptide, dose response retest (AID 1117319). TR-FRET GST-Vif / biotin-A3G peptide binding; higher % means a stronger effect; test concentration not given here; strong numbers were not always called active. one-dose inhibition, %; IC50 in µM for titrated hits. 0.57% of 260,000 active;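 active = above the screen mean plus three standard deviations and confirmed in dose response; inconclusive = results disagree or hit not tested in dose response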;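 also: Vif residues 1-94 fused to GST binding biotinylated APOBEC3G peptide 110-148; 0% = full assay without inhibitor and 100% = GST in place of GST-Vif; retest series ran down from 100 µM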
# LANA-H2A inh – blocks KSHV LANA binding to histone H2A/H2B | 0.6% of 320,000 active | AID 2629 | inhibition, % (concentration not given with the values) | cell-free LANA-H2A/H2B peptide, fluorescence polarization; in the data active = inhibition mostly above about 10%, no sharp cut-off; inactive = mostly below about 6.7%;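 also: stock transfer was 7.5 nL into about 10 µL; 0% = median of vehicle wells and 100% = median of positive control wells; one replicate is shown; the record names a cut of 25% in any replicate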
# Calb FLC – affects C. albicans growth with fluconazole | C. albicans CaCi-2 (fluconazole-resistant clinical isolate) + fluconazole, Alamar Blue growth, 48 h | 0.57% of 300,000 active | growth inhibition, % (no concentration beside the values) | AID 1979;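 active = most replicates above 75%; inconclusive = exactly half above 75%; inactive = most below 75%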;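 also: all wells also contain fluconazole at 8 µg/ml as a sub-toxic cotreatment; 0% = median of DMSO wells and 100% = median of geldanamycin control wells; wells of about 8 µL received 7.5 nL stock; the first replicate is given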
# Beta2AR agonist – activates human beta-2 adrenergic receptor causing internalization | response, % (test concentration not listed) | P07550 | Am2.2-beta2AR cells, FAP receptor internalization, flow cytometry; reference of the scale not given here | 0.43% of 340,000 active;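 active = response above a set limit, near 3 SD of response in nonfluorescent compounds, cut at about 42% in these data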;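 also: stock transfer was 100 nL into about 11 µL; a reference agonist was the positive control; negative values mostly stem from fluorescent compounds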
# Target sequence (P07550 whole entry, looked up): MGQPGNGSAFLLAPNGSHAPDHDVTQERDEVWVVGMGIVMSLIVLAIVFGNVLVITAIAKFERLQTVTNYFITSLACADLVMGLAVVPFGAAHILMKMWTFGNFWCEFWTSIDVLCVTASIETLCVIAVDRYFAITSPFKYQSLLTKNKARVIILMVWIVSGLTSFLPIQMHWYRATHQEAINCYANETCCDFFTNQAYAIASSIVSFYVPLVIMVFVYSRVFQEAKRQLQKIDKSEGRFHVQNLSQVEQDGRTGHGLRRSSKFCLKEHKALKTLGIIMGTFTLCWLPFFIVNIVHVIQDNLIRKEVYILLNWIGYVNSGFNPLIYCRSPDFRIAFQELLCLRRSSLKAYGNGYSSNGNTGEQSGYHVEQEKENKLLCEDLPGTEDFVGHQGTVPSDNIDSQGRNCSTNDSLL
# ALR inh – human ALR oxidase inhibition via reduced H2O2; purified ALR, DTT oxidation, H2O2 HRP-luminol luminescence; inhibition, % (concentration not given with the values); 3.8% of 290,000 active;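 active = mean and each replicate at 75% or more; inconclusive = only one of the two met; inactive = neither met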;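 also: stock transfer was 7.5 nL into about 7.5 µL; 0% = neutral wells and 100% = wells with inactivated enzyme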
# Target sequence (P55789 whole entry, looked up): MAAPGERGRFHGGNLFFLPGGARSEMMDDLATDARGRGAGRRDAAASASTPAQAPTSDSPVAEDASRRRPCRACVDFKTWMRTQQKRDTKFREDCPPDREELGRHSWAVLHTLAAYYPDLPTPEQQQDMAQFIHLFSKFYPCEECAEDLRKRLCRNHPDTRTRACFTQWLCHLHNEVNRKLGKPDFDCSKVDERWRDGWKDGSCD
# RanGTP-Imp inh – disruptors of Ran-importin-beta complex formation – biochemical, FRET, CFP-Ran, YFP-importin-beta, homogeneous, primary screen; AID 2216; cell-free CFP-Ran/YFP-importin-beta FRET ratio; 1.1% of 300,000 active; inhibition, % (no concentration beside the values);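 active = most replicates above 15%; inconclusive = exactly half above 15%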;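 also: 0% = DMSO wells and 100% = Ran loaded with GDP instead of GTP; wells of about 40 µL received 100 nL stock; the first replicate is given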
# HNF4A DNA FP – change in binding of human HNF4 alpha to DNA. HNF4a-FITC DNA binding, fluorescence polarization, 1 h. 0.3% of 360,000 active. activity change, % at 10 µM. P41235; in the data active = activity change above about 30%, passing the limit was not always enough;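 also: controls were the assay level and a saturating level of protein; the project sought stronger binding though the title names inhibitors; some compounds called inactive have numbers as strong as hits; positive values seem to mean higher polarization but the record does not say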
# Target sequence (P41235 whole entry, looked up): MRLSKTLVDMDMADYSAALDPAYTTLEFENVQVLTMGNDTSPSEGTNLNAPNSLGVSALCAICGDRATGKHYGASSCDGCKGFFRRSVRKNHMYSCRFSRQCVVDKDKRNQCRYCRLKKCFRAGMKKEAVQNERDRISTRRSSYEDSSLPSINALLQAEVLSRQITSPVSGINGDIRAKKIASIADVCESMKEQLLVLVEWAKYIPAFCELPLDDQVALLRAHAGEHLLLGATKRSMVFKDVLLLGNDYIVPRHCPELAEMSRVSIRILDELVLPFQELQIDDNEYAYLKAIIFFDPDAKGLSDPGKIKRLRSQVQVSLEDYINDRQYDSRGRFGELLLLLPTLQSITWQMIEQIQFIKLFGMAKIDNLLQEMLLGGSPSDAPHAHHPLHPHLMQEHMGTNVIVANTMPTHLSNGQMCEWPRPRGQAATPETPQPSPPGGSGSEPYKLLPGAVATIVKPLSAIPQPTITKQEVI
# Numbers without * were called inactive; u = inconclusive; x = no result given.
SMILES,Vif A3G,LANA-H2A inh,Calb FLC,Beta2AR agonist,ALR inh,RanGTP-Imp inh,HNF4A DNA FP
CC(NC(=O)CCN1C(=O)c2ccccc2S1(=O)=O)c1ccccc1 (stereo not given),-6.9%,-2.1,5.3,-1.9,-1.1,-0.4,4.1
CCN(CC(=O)Nc1cccc(C(C)=O)c1)S(=O)(=O)c1ccccc1,5.4%,-3.2,-1.2,-3.9,-7.4,0.6,2.0
COc1ccc(/C=N/NC(=O)c2cccc(NC(=O)c3ccccc3Cl)c2)cc1,-3.0%,-0.2,-17.8,3.7,-2.3,-0.2,0.0
COCCN1C(=O)/C(=C/c2ccc(Oc3ccc([N+](=O)[O-])cn3)c(OC)c2)SC1=Nc1ccccc1,5.8%,1.0,-32.1,3.8,-7.4,-1.7,-0.4
COc1ccc(C(=O)/C=C/c2ccc(OC)cc2OC)c(O)c1,-7.0%,2.8,2.8,2.9,19.5,u,-1.0
O=C(NNC(=S)Nc1ccccc1C(F)(F)F)c1cccnc1,16.1%,-5.7,3.9,5.3,45.9,u,3.1
COc1ccc(N(C(=O)Cn2nnc(-c3ccc(F)cc3)n2)C(C)C(=O)NC2CCCC2)cc1OC (stereo not given),0.5%,2.2,8.0,3.0,12.1,-1.4,3.4
COc1ccc(C2=NS(=O)(=O)N(C)C(C(=O)NC3CCCC3)=C2)cc1,x,-2.8,-13.0,16.0,-3.3,7.6,0.2
COc1cccc2c1cc1c(=O)n(CC(=O)NCCCN3CCN(C)CC3)nc(C)n12,x,-4.9,4.9,4.2,-1.3,2.9,-2.6
O=C(Nc1ccc(Cl)cc1)Nc1ccc(C(=O)N2CCOCC2)cc1,13.2%,-3.5,-4.4,-2.4,x,u,-1.1
Oc1ccc(/C=N/NC(=S)NCC2CCCO2)cc1 (stereo not given),7.6%,4.6,14.7,3.3,98.3*,-1.4,-0.7
Cc1ccc(C)c(NC(=O)C2C3C=CC(O3)C2C(=O)O)c1 (stereo not given),x,-1.8,8.1,2.5,-6.4,4.4,-0.4
Cc1noc(C)c1COc1ccc(C(=O)OCC(=O)N2CC(=O)Nc3ccccc32)cc1,2.4%,-4.4,-2.4,13.1,-5.9,2.1,1.6
CC(C)(C)NC(=O)COc1ccc(S(=O)(=O)N2CCCC2)cc1,3.0%,-3.7,-22.9,2.4,0.5,4.3,-1.0
O=C(COC(=O)/C=C/c1cccc(C(F)(F)F)c1)NC(=O)NCc1ccccc1,-4.1%,x,x,-4.8,x,x,-2.4
COC(=O)[C@@H](NCc1ccc(OC)c(B(O)O)c1)C(C)C,-3.2%,x,x,-5.2,x,x,3.3
Cc1ccccc1OCCC(=O)Nc1ccc(Cl)cc1F,-4.6%,0.1,-1.5,-5.0,5.3,0.5,-1.3
CCn1c(C)nnc1SCC(=O)Nc1ccc(Cl)cc1,x,-0.9,-3.3,-5.5,-1.1,2.0,3.6
CCC(=O)c1cccc2c1N=CC1=C(CC(C)(C)CC1=O)N2,-43.1%,2.1,12.8,-11.0,-3.9,6.8,5.4
CC(Nn1cnnc1)c1cc(Cl)ccc1O (stereo not given),x,1.4,1.2,6.9,2.8,6.9,-1.0

# In the list so far, these contain fluorine:
SMILES,Vif A3G,LANA-H2A inh,Calb FLC,Beta2AR agonist,ALR inh,RanGTP-Imp inh,HNF4A DNA FP
O=C(NNC(=S)Nc1ccccc1C(F)(F)F)c1cccnc1,16.1%,-5.7,3.9,5.3,45.9,u,3.1
COc1ccc(N(C(=O)Cn2nnc(-c3ccc(F)cc3)n2)C(C)C(=O)NC2CCCC2)cc1OC (stereo not given),0.5%,2.2,8.0,3.0,12.1,-1.4,3.4
O=C(COC(=O)/C=C/c1cccc(C(F)(F)F)c1)NC(=O)NCc1ccccc1,-4.1%,x,x,-4.8,x,x,-2.4
Cc1ccccc1OCCC(=O)Nc1ccc(Cl)cc1F,-4.6%,0.1,-1.5,-5.0,5.3,0.5,-1.3

# Carrying on:
SMILES,Vif A3G,LANA-H2A inh,Calb FLC,Beta2AR agonist,ALR inh,RanGTP-Imp inh,HNF4A DNA FP
Cc1c(CCC(=O)N2CCC(C(=O)O)(c3ccccc3)CC2)c(=O)oc2cc3oc4c(c3cc12)CCCC4,x,-1.7,-0.9,-7.5,x,3.2,-2.0
CC(=O)c1ccc(NC(=O)CSCC(=O)Nc2ccc3ccccc3c2)cc1,-0.8%,-4.0,2.4,2.9,-8.1,-1.5,0.8
Cc1cc2c(=O)n(C)c(SCC(=O)NC3CCCC3)nc2s1,-7.5%,x,2.3,-0.2,x,-1.1,2.4
CN(CC(=O)Nc1cccc(F)c1)C(=O)COc1cccc2c1OC(C)(C)C2,x,-0.3,1.4,-2.0,4.8,1.8,-3.4
COc1cc(C(=S)N2CCCCC2)ccc1O,17.5%,1.6,x,-2.1,82.1*,x,-0.5
Brc1ccc(-c2nnc3sc(CNCc4ccc5c(c4)OCO5)cn23)cc1,-10.2%,2.9,-6.3,-0.7,-5.6,0.5,-2.6
Cc1ccnc(NC(=O)CCC(=O)N(CC(=O)NCc2ccc(F)cc2)Cc2ccccc2)c1,x,1.7,-8.6,-7.7,-2.6,0.3,-2.1
COc1ccc(OCc2cc(C(=O)NCC(C)(C)N3CCOCC3)no2)c(Cl)c1,-2.7%,-16.3,-4.4,-2.7,-13.3,-2.7,0.4
Cc1nc(S(=O)(=O)Cc2ccccc2Cl)nc2c1CCC2,-8.6%,-3.2,-1.9,-17.6,-8.5,6.4,-0.2
O=C(CN1CCN(S(=O)(=O)c2cccc(F)c2)CC1)Nc1ccnn1C1CCCC1,-7.8%,4.6,x,5.3,-4.2,x,-1.9
CCCCN(CC)C(=O)Cn1c(=O)sc2ccccc21,21.3%,3.1,0.8,0.5,-9.7,3.5,-1.0
Cc1ccc(C(CC(=O)N2CCOCC2)c2ccco2)cc1 (stereo not given),5.2%,0.2,0.1,-0.1,x,-2.6,1.6
O=C(NCCc1ccc(Cl)cc1)C1CCC(=O)N1Cc1ccccc1Cl (stereo not given),-10.2%,13.4*,2.1,-4.0,-10.6,3.0,-0.9
Cn1c(SCC(=O)Nc2ccc(F)cc2)nnc1-c1cccnc1,-4.2%,-4.0,-6.4,-3.9,8.4,-2.6,-4.5
O=C(CCCOc1ccc(Cl)cc1)NC1CCCCC1,x,-1.5,-6.1,10.7,x,u,-0.8
COc1ccc(NC(=O)CC2SC(N3CCCC3)=NC2=O)cc1Cl (stereo not given),x,1.0,x,6.2,-3.7,x,1.9
Cc1ccc(Sc2nc([N+](=O)[O-])nn2C)cc1,x,2.9,7.2,-6.0,x,-0.9,1.7
O=C(NC1CCCCC1)/C(=N\O)c1ccccn1,1.5%,-3.3,19.6,1.5,-1.8,-5.2,1.1
CN(C(=O)COc1cc(C(F)(F)F)nn1C)c1ccccc1,-2.1%,3.3,-8.6,-2.5,x,3.6,1.7
COc1ccc(NC(=O)Cc2nnc(SCC(=O)Nc3ccc(F)cc3)n2C)cc1,x,-5.6,8.6,-25.3,0.1,0.4,2.4
O=C(CNC(=O)c1ccccc1)OCc1nc2ccccc2s1,x,1.8,-29.3,-0.4,-8.3,0.8,3.9
Cc1cc(-c2ccc(S(=O)(=O)N3CCN(c4ccc(F)cc4)CC3)s2)on1,x,-5.4,-9.2,-3.9,2.5,2.5,-4.4
C=CCS(=O)(=O)N1CCCC(N(C)CCc2ccc(OC)c(OC)c2)C1 (stereo not given),x,7.3,-16.6,x,-13.4,-2.9,4.4
Cc1sc2ncn(CC(=O)Nc3c(F)cccc3F)c(=O)c2c1S(=O)(=O)N1CCC(C)CC1,-11.4%,-0.1,-8.2,-0.4,15.1,0.3,5.2
CCOC(=O)C1(Cc2ccccc2C(F)(F)F)CCN(C2CCN(C(C)C)CC2)CC1,-9.0%,-5.8,-9.0,8.0,x,3.2,-4.8
O=C1c2c(O)cc(O)cc2O[C@@]12c1c(cc(O)c3c1O[C@H](c1ccc(O)cc1)[C@@H](O)C3)O[C@@H]2c1ccc(O)cc1,24.1%,-3.8,0.6,-10.4,99.0*,0.1,0.9
Cc1cccc(/C(N)=N/OC(=O)N2CCOCC2)c1,-4.8%,-1.2,3.3,10.3,0.1,0.3,-2.5
Nc1cc(OC(=O)c2ccc(F)cc2)nn1S(=O)(=O)c1ccccc1,x,1.8,5.6,-4.7,0.2,-2.8,5.8
CC(OC(=O)CN1C(=O)c2ccccc2C1=O)C(=O)NC1CCCCC1 (stereo not given),x,-3.5,3.2,2.6,1.2,u,2.9
COC(=O)c1ccc(CSc2nc3c(c(=O)n2-c2ccccc2)SCC3)o1,5.4%,-4.0,-5.2,1.7,28.2,4.4,8.8
Cc1occc1C(=O)N(C)Cc1nc(-c2ccccc2)no1,x,4.8,-2.2,-5.5,3.8,0.7,1.0
COc1ccc(C(C)=O)cc1CSc1nnc(Nc2ccc(C)cc2C)s1,-8.3%,-2.3,-1.3,1.1,-1.0,3.1,3.2
COc1ccc(NC(=O)C2CCCN(C(=O)Nc3ccc(F)cc3)C2)cc1 (stereo not given),x,3.9,-0.1,2.8,1.0,-1.4,-0.6
O=C(CNS(=O)(=O)c1ccc(F)cc1)Nc1ccc(C(F)(F)F)cc1,-5.1%,3.2,-0.5,-6.2,-3.0,-4.3,2.1
CCC(=O)c1c[nH]c(C(=O)NCCCn2ccnc2)c1,-1.1%,-4.1,3.9,-7.3,-10.8,-0.8,2.1
C[C@@H]1CCC(=O)N(CC[C@H](N=[N+]=[N-])c2ccccc2)CC1,x,1.8,-7.3,0.3,-5.7,1.1,1.4
COCCNC(=O)CSc1nc2ccccc2c(=O)n1CCCC(=O)NCc1ccccc1,0.5%,2.2,-3.3,-11.0,-10.2,-1.1,1.3
CNC(=O)c1sc(NCc2ccccc2OC)nc1C,x,x,-8.9,15.1,x,-2.9,0.3
Cn1cc(CN2CCC(C(=O)Nc3ccc(Oc4ccccc4F)cc3)CC2)cn1,x,x,-3.0,6.8,-15.2,-1.0,3.0
COc1ccc(C2CC(c3ccc(Br)cc3)=NN2C(=O)CN2CCCC2)cc1 (stereo not given),-22.5%,3.4,-39.7,-13.7,2.6,1.0,0.8
O=C(CC(C(=O)O)c1cccc(Cl)c1Cl)c1ccccc1 (stereo not given),-6.2%,2.5,-3.2,7.5,2.1,-1.0,1.1
O=C(Cn1nc(Cl)nc1Cl)c1ccc2c(c1)OCCO2,7.2%,-1.4,-0.9,6.2,u,-0.4,1.4
O=C(NC1CCCN(Cc2ccc(Cl)cc2)C1)c1cccc(F)c1 (stereo not given),x,0.4,-6.1,6.7,-2.6,-6.5,-0.2
Cc1cc(F)ccc1NCc1cccnc1,4.9%,-1.8,0.7,-5.7,53.2,-1.6,4.8
O=[N+]([O-])c1ccc(NC(=S)NCCc2ccccc2)cc1,x,-1.8,-28.1,3.0,-8.7,7.0,2.7
Cc1ccc(/C=C/C(=O)NC(=S)N2CCN(c3ccc(F)cc3)CC2)cc1,x,-2.3,1.8,2.4,2.3,0.3,2.9
O=C(Nc1ccccc1)N1CCN(c2ncccn2)CC1,8.7%,1.2,-3.0,-10.0,-1.0,-0.8,1.1
Cc1ccc(S(=O)(=O)N(C)CCCC(=O)NC(C)(C)CO)cc1,6.2%,-4.2,11.3,3.5,-2.7,2.6,-1.4
COc1ccc(NC(=O)COC(=O)CCCc2c[nH]c3ccccc23)cc1OC,-1.8%,-2.6,27.0,13.4,22.0,u,0.5
O=C(NC(=S)Nc1ccccc1)c1cncc(C#Cc2ccccc2)c1,10.1%,1.1,8.5,1.6,-5.6,0.8,-1.3
O=C(NCc1ccc(Cl)cc1Cl)C(=O)N1CCCCC1,-3.8%,0.1,32.7,-1.1,-10.6,0.1,0.0
CC1(C)CC(=O)C2=C(C1)Nc1ccccc1NC2c1ccccn1 (stereo not given),1.6%,5.1,-23.2,1.1,83.0*,-4.0,-1.0

# From PubChem
